ClpP mod: qHTS Assay for Activators of ClpP; Potency, µM (titrated, usually from 57.5 µM), for the others: at the top dose activity change, negative = active; purified B. subtilis ClpP, FRET peptide cleavage, 20 min; 340,000 compounds, 1.9% hits; ATP-dependent Clp protease proteolytic subunit (Bacillus subtilis (strain 168)), P80244; active = well fitted falling curve with a large enough effect; inconclusive = small, poorly fitted or top-dose-only effect; inactive = no such curve, though single readings can be large or run the other way; further: potency means the concentration at half of the fitted maximal effect; the source files actives as falling curves though it sought activators and does not explain the sign; nearly all actives have a fitted effect of over 65% in size; many hits overshoot -100%
Target sequence (P80244 whole entry, looked up): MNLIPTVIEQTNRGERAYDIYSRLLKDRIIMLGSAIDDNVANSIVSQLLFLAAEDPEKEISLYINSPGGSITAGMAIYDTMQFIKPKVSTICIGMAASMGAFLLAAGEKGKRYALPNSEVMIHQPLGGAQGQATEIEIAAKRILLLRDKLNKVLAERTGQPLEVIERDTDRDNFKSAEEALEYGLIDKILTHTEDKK
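ClpP 10 microg/mL final, pH 8 Tris/KCl buffer with BSA, glycerol, Tween-20; compound pinned in; FRET-FV substrate; RT 20 min; Ex320/Em430; ΔFRET vs ADEP 5.8 microM, DMSO, no enzyme.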
Menin MLL FP FL: inhibitors of human menin-MLL interaction, wild-type MLL peptide; Fluorescence polarization, fluorescein-MLL peptide displacement from menin; FP activity change, % at 61.4 µM; 290,000 tested, under 10 active; AID 1766; inconclusive = falling polarisation curve, or a change in total fluorescence; inactive = total fluorescence flat and polarisation flat or rising; no compound was filed as active; the % refers to the polarisation; negative = inhibition;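 further: % of control where 0% means no effect; inhibitors lower the polarisation; unlabelled MLL peptide was the positive control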
gsp antag: antagonists of gsp mutant (McCune-Albright syndrome); gsp-mutant cells, cAMP HTRF, 30 min; control for the full effect not named in the record; Potency, µM (doses to about 76.9 µM), for inactives: at the highest dose activity change, negative = inhibition, actives largely listed as inhibitors; 340,000 compounds, 0.4% hits; active = falling curve of any shape with a large fitted effect; inconclusive = falling curve, mostly with a smaller effect; inactive = flat or rising curve; cell line not stated here;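 further: intracellular cAMP measured with PDE inhibitor Ro 20-1724 present during compound exposure; potency means the concentration at half of the fitted maximal effect; on the % scale 0 is the no-effect control and ±100 the full control effect; nearly all actives have a fitted effect of over 65% in size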
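Measurement of cellular cAMP by homogeneous time-resolved fluorescence following a 30 min compound exposure at 37C. The PDE inhibitor […] was present throughout; the assay buffer was DPBS with 0.05% BSA and 0.005% Tween 20.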
TRPML1 blocker: human mucolipin-1 channel inhibition; Q9GZU1; TRPML1-inducible cells, Ca2+ dye fluorescence, FDSS; active compounds read low; inhibition of EC80 agonist-evoked calcium signal; activity change, negative = inhibition, % (no concentration beside the values); 390,000 compounds, 0.02% hits; in the data active means activity change below about -50%; inconclusive means about -30% to -50%; inactive means above about -30%;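 further: stimulus is agonist 54-4 at its EC80 concentration; on the % scale 0 is the no-effect control and ±100 the full control effect; compound concentration not given in the record; the text of the record puts the active cut at -80%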
Target sequence (Q9GZU1 whole entry, looked up): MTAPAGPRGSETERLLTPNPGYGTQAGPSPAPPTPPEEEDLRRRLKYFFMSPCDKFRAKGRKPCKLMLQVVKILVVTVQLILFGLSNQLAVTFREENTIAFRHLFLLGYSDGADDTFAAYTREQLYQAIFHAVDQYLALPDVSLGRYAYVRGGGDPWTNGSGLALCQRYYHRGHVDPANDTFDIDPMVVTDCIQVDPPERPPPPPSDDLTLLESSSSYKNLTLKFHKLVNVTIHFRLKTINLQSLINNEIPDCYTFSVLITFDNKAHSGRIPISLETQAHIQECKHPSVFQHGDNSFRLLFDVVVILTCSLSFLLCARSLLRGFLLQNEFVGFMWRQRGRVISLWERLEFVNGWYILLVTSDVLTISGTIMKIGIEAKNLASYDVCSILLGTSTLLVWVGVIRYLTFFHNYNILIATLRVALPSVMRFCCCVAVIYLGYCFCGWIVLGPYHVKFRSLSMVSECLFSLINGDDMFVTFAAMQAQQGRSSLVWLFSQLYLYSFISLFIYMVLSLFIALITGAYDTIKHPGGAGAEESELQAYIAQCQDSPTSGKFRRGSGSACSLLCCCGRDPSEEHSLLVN
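TRPML1-DL cells, Tet-induced overnight (~16 h, 37 °C) at 1,500 cells/well, were loaded with Ca8 no-wash dye plus quencher for 45-90 min at room temperature. Compounds were pinned during FDSS kinetic reading; agonist 54-4 at EC80 (4 uM final) then added.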
gsp agonist: agonists of gsp mutant (McCune-Albright syndrome). gsp mutant cells, cAMP HTRF, 30 min; control for the full effect not named in the record. Potency, µM (series often up to 76.9 µM), inactives show at the top dose activation (cAMP increase), actives largely listed as activators. 340,000 compounds, 0.13% hits. AID 624287; active = well fitted activation curve with a large enough effect; inconclusive = small, poorly fitted or top-dose-only effect, or another doubt; inactive = no such curve, though single readings can be large or run the other way; cell line not stated here;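 further: phosphodiesterase inhibitor Ro 20-1724 added with compounds to block cAMP breakdown; potency means the concentration at half of the fitted maximal effect; nearly all actives have a fitted effect of over 60% in size; about a fifth of the inactives were tested at one dose only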
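Cells stably selected in G418 were plated at 2000/well, grown 16-24 hr, then given compounds in DMSO with the PDE inhibitor […] (300 uM solution added) for 30 min at 37C; cAMP was read by HTRF.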
TRPML1 agonist: activates the human TRPML1 channel; Q9GZU1; TRPML1-expressing cells, Ca2+ dye fluorescence, FDSS; host cell line not named in the record; reference of the full effect not given here; activation, % (no concentration beside the values); 410,000 compounds, 0.12% hits; AID 624414; in the data active = activation above about 50%; inconclusive = about 30% to 50%; inactive = below about 30%; further: 0% is about no effect; the text of the record puts the active cut at 80%
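Calcium fluorescence on an FDSS kinetic reader gave the read-out. Tet-induced TRPML1-DL cells were plated overnight, dye-loaded (Ca8 with quencher, 45-90 min, room temperature, dark), then read 110 s after compound addition, and again 110 s after 4uM final 54-4 (EC80).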
Numbers without * were called inactive; ? = inconclusive; . = no result given; [ ] = remark or other dose. Random draw from the library (roughly 2.1% active in at least one column).

SMILES | ClpP mod | Menin MLL FP FL | gsp antag | TRPML1 blocker | gsp agonist | TRPML1 agonist
O=C(C1CCCO1)N1CCN(C(=S)Nc2cc(F)cc(F)c2)CC1 (configuration not stated) | -1.6% | 0.4 | -2% | -10 | 18% | 0.0
Cc1ccc(SCC(=O)Nc2cccc(C(=O)NC(C)(C)C)c2)cc1 | 0.3% | 3.0 | -5% | -1 | -44%[inhibitor] | -1.1
Nc1ccccc1C(=O)N/N=C1\C2CN3CCN(C2)CC1(c1ccccc1)C3 | -1.8% | . | -2% | 19 | 14%[15.4 µM] | -0.3
C=C(C)CNC(=S)N/N=C1\CCCCc2ccccc21 | . | 1.7 | -7% | 41 | 6%[15.4 µM] | 2.8
CNc1nc(-c2c(C)[nH]c3ccc(OC)cc23)cs1 | . | 1.8 | 5% | -5 | 2% | 2.3
CCOc1ccc2sc(NS(=O)(=O)c3ccc(OC)c(OC)c3)nc2c1 | 0.4% | 1.9 | -11% | -6 | 8% | -0.1
S=C(Nc1ccc(Cl)cc1)Nc1ccc2cn[nH]c2c1 | -6.7% | -0.1 | 6% | -1 | 7% | -0.5
COc1cccc(NC(=O)C(=O)NCc2ccncc2)c1 | . | -2.5 | -4% | 24 | 15% | -0.5
CCOC(=O)CNC(=O)c1cc2c(=O)n3cccc(C)c3nc2s1 | 5.0% | . | . | -1 | . | 0.5
S=C1NC(c2ccccc2)=NCN1c1ccccc1 | 0.6% | -0.5 | 11% | 15 | -4% | 0.8
CC1CCCCC1NC(=O)COC(=O)Cc1ccc(Cl)cc1 (configuration not stated) | 2.8% | . | 3% | -2 | 0% | 0.0
CC1CCCCC1NC(=O)c1cc2c(=O)n3ccccc3nc2n1C (configuration not stated) | 3.9% | -6.4 | -1% | -1 | 15% | 1.6
O=C(Nc1ccn(CCCNC2CCN(Cc3ccccc3)CC2)c(=O)n1)OCc1ccccc1 | 0.4% | . | . | 3 | 0% | -0.4
CCN(c1ccccc1)S(=O)(=O)c1ccc2[nH]c(=O)c(=O)[nH]c2c1 | 0.8% | 0.8 | 7% | -17 | -8%[15.4 µM] | -0.8
O=C1CN(C(=O)COC(=O)C2CCN(S(=O)(=O)c3ccccc3C(F)(F)F)CC2)c2ccccc2N1 | -0.7% | -0.1 | 0% | 27 | -28% | -0.2
CC1Cc2ccccc2N1C(=O)c1cccnc1 (configuration not stated) | -1.9% | 2.6 | 3% | 21 | -9% | 0.5
COc1ccc(C2(CNC(=O)Cc3ccc(OC)c(OC)c3)CCCC2)cc1 | . | -5.5 | . | 11 | -3%[15.4 µM] | 0.2
Cc1ccc(S(=O)(=O)N(C)c2ccccc2C(=O)Nc2ccc(F)cc2F)cc1 | 2.4% | 0.0 | -24% | 22 | -18% | 0.2
O=C(Cn1cccc1)Nc1ccc(F)cc1F | -2.4% | 2.3 | -2% | 8 | -4% | -0.1
CCCS(=O)(=O)n1nc(-c2ccc(OC)cc2)cc1N | -0.1% | 1.5 | 0% | -2 | 17% | -1.1
O=C(N/C=C/n1cnc2cc(C(F)(F)F)ccc21)c1ccccc1F | 2.6% | 0.3 | -11% | -3 | -55%[inhibitor] | 3.8
COc1ccc(-c2nc3scc(CCNS(=O)(=O)c4c(C)noc4C)n3n2)cc1 | -2.9% | . | . | -23 | . | 0.8
CC(C)(C)N(Cc1ccccc1)C(=O)COC(=O)c1ccc(S(=O)(=O)N2CCOCC2)cc1 | 1.0% | . | -29% | -19 | 18% | 1.2
Cc1cc(/C=C2/NC(=O)N(Cc3ccccc3F)C2=O)c(C)n1C | -2.7% | 7.3 | -4% | 10 | 41% | 4.7
Cc1ccc(-c2c3c(=O)n(C)c(=O)n(C)c3c3cnc4ccccc4n23)cc1 | ? | . | . | -1 | . | 0.2
Cc1ccc(C)c(N2CCN(C(=O)C3CCN(S(=O)(=O)c4ccc5[nH]c(=O)oc5c4)CC3)CC2)c1 | -0.2% | . | . | 13 | . | 0.8
CCN(CC)S(=O)(=O)c1ccc(N(C)Cc2cccnc2)nc1 | ? | -1.1 | -2% | -17 | -36%[inhibitor] | -0.7
COc1cc(NC(=O)c2ccc(-c3cn[nH]c3)c3ccoc23)cc(OC)c1OC | -9.3% | . | . | 41 | . | 0.1
COc1ccc(NS(=O)(=O)c2ccc(C)c(C(=O)NCC(c3ccco3)N3CCCCC3)c2)cc1 (configuration not stated) | -5.4% | . | 3% | 5 | 9% | 0.4
COc1ccccc1N1CCN(C(=O)c2cc3sccc3n2C)CC1 | -5.0% | -3.6 | -8% | 7 | -13% | -0.2

Entries of single compounds from above. Order of values: ClpP mod	Menin MLL FP FL	gsp antag	TRPML1 blocker	gsp agonist	TRPML1 agonist
CCN(CC)S(=O)(=O)c1ccc(N(C)Cc2cccnc2)nc1 across the screens: ?	-1.1	-2%	-17	-36%[inhibitor]	-0.7
CC(C)(C)N(Cc1ccccc1)C(=O)COC(=O)c1ccc(S(=O)(=O)N2CCOCC2)cc1 across the screens: 1.0%	.	-29%	-19	18%	1.2
Cc1ccc(C)c(N2CCN(C(=O)C3CCN(S(=O)(=O)c4ccc5[nH]c(=O)oc5c4)CC3)CC2)c1 across the screens: -0.2%	.	.	13	.	0.8

Remaining list, next part
SMILES | ClpP mod | Menin MLL FP FL | gsp antag | TRPML1 blocker | gsp agonist | TRPML1 agonist
CC(=O)Nc1ccc(-c2cc(C(=O)O)c3ccccc3n2)cc1 | 3.5% | 1.2 | 1% | . | 41% | .
O=C(CCNS(=O)(=O)c1ccccc1C(F)(F)F)NNC(=O)c1csc(N2CCOCC2)n1 | . | . | 7% | -16 | -1%[15.4 µM] | -0.4
CCOc1ccc(NC(=O)c2nn(C)cc2Br)cc1 | -1.2% | 2.1 | -4% | -13 | ? | 0.3
Cc1cc(=O)[nH]c(SCC2COC3(CCCCC3)O2)n1 (configuration not stated) | 0.5% | -0.7 | 5% | -7 | 14% | -0.6
O=C1c2ccccc2C(O)(c2ccccc2)N1c1ccncc1 (configuration not stated) | -18% | 4.2 | 2% | 12 | ? | 1.9
Cc1ccc(NCN2C(=O)c3ccccc3C2=O)c(C)c1 | -3.5% | 2.3 | 6% | 1 | -35%[inhibitor] | -0.5
COc1ccccc1C(=O)N1CCc2ccccc21 | 1.8% | -2.0 | -5% | -11 | 13% | 0.6
COc1ccc(C=O)cc1OS(=O)(=O)c1ccccc1[N+](=O)[O-] | . | 6.6 | -6% | 3 | 8% | -1.0
N#CC1=C(N)NC(SCc2ccccc2)=C(C#N)C12CCCC2 | ? | 2.6 | 22% | -3 | 24% | 1.0
Cc1ccccc1Cc1c(C)nc2nc(SCC(=O)NC(C)c3ccccc3)nn2c1C (configuration not stated) | -7.7% | . | . | -3 | . | 1.7
CC1=NN(C(N)=S)C(=O)C1N=Nc1ccc(S(N)(=O)=O)cc1 (configuration not stated) | -0.6% | 8.7 | -10% | 8 | -2% | -0.3
COCC(=O)N1CCC2CC1c1cc(Cl)ccc12 (configuration not stated) | 1.6% | . | 7% | 1 | . | -0.6
NC(=O)CC(NC(=O)c1ccccc1)c1ccc(N2CCN(c3ccc(F)cc3)CC2)c([N+](=O)[O-])c1 (configuration not stated) | -3.2% | -0.3 | -4% | -9 | 12% | -0.2
COc1cc(-c2nnc(SCc3cc(=O)oc4cc(C)ccc34)o2)cc(OC)c1OC | -17% | -2.7 | -4% | -10 | 5% | 2.4
COc1ccc(C2C(C(=O)N3CCOCC3)CCC(=O)N2c2ccc(OC)cc2)cc1 (configuration not stated) | -0.5% | -2.6 | 8% | 0 | 22% | 0.0
O=C(Nc1ccc(F)cc1)C1CCCN(c2cnccn2)C1 (configuration not stated) | -15% | 0.8 | 5% | 5 | 25% | 1.9
Cc1ccc(CNC(=O)C2CCCN(S(=O)(=O)N3CCC(C)CC3)C2)cc1 (configuration not stated) | 2.0% | . | 9% | -2 | 8% | 4.9
CCOc1ccc(CN(CCc2ccc3c(c2)OCO3)Cc2cc(OC)c(OC)cc2OC)cc1 | -2.2% | . | . | -4 | . | 0.9
Cc1cccc(CSCc2ccc(C(=O)NCC3CCCO3)o2)c1 (configuration not stated) | -1.0% | 0.0 | -7% | -6 | -7% | 0.1
CCCCCCCCC(=O)N/N=C/c1cccc(Br)c1 | -13% | 6.9 | 1% | 5 | 17% | -0.4
CC1CCCCN1CC(=O)c1c(N)n(Cc2ccccc2)c(=O)n(C)c1=O (configuration not stated) | -3.8% | 0.5 | -5% | 13 | 2%[15.4 µM] | -1.3
O=C(CSc1nc2c(sc3ccccc32)c(=O)n1Cc1ccccc1)NCC1CCCO1 (configuration not stated) | -5.4% | 0.0 | 22% | 3 | -31%[inhibitor] | -0.5
CCN(CC)c1nc(C)c(C(C)=O)cc1C#N | -3.0% | 0.1 | 12% | -12 | 26% | -0.1
COc1ccc(-c2nc(C#N)c(N3CCCCCC3)o2)cc1 | 30% | 4.1 | -27% | -8 | 5% | 1.0
Cn1c(Cc2cccs2)nnc1SCC(=O)Nc1ccccc1F | 0.7% | . | -5% | -5 | -75%[inhibitor] | -0.6
CC(C)N(C(=O)COC(=O)c1cccc(C(=O)OCC(=O)N(C(C)C)C(C)C)n1)C(C)C | . | 1.7 | -7% | 1 | -4%[15.4 µM] | -0.8
COc1cccc(C(=O)NCC(=O)OC(C)C(=O)NC23CC4CC(CC(C4)C2)C3)c1 (configuration not stated) | -1.4% | . | ? | 9 | -2%[15.4 µM] | 0.4
O=C1C(=Cc2cccn2-c2ccc(O)cc2)C(=O)c2ccccc21 | 0.5% | ? | -11% | 5 | 16% | 6.1
Cc1ccc(C)c(N2CCN(C(=O)Cc3ccc(NC4=NC5CS(=O)(=O)CC5S4)cc3)CC2)c1 (configuration not stated) | 0.3% | -1.2 | 1% | 19 | -83%[inhibitor] | 0.5
CC(/C=C/c1ccc2c(c1)OCO2)=N\NC(=O)c1ccccc1 | . | -3.3 | 3% | -9 | -3%[15.4 µM] | -0.4
CCCN1CCN(CCCNC(=O)c2ccc3c(Cl)c4c(nc3c2)CCCC4)CC1 | -0.9% | 6.1 | 9% | -3 | -13% | -0.6
COC(=O)Cn1cnc2c(oc3ccccc32)c1=O | -0.2% | -5.5 | -3% | 10 | -25% | 0.2
O=c1[nH]c2c(c(=O)[nH]1)OCN(Cc1ccccc1)C2 | 1.6% | . | -1% | -15 | -20% | 0.2
Cc1nn(C(=O)Cn2cc([N+](=O)[O-])cn2)c(C)c1Cl | -0.6% | -2.3 | -7% | 13 | -16% | -0.6
Oc1ccc(C(c2nnnn2C2CCCCC2)N2CCOCC2)cc1 (configuration not stated) | . | -6.4 | -1% | -9 | -1%[15.4 µM] | -0.3
COC(=O)c1c(NC(=O)c2ccc(Br)o2)sc(C)c1C | -3.3% | 1.8 | 7% | -18 | -16% | 0.4
